# Bioassay records from PubChem BioAssay.
# Vaccinia Venus: vaccinia inhibition (Venus reporter); Vaccinia virus Venus reporter expression, fluorescence; Potency, µM (top dose mostly 36.5 µM), inactives show at the highest dose activity change, negative = inhibition, usual class: inhibitors; 0.46% of 330,000 active; AID 720580; active means well fitted inhibition curve with a large enough effect; inconclusive means small, poorly fitted or top-dose-only effect; inactive means no such curve, though single readings can be large or run the other way; tested in A549 cells; also: nearly all actives have a fitted effect of over 30% in size; inactives centre near -10
# Vaccinia mCherry: inhibitors of vaccinia virus infection (mCherry reporter signal). Potency, µM (doses to about 36.5 µM), for inactives: top-dose activity change, negative = inhibition, most hits filed as inhibitors. 0.63% of 310,000 active. Vaccinia virus mCherry reporter infection, fluorescence; about a quarter of the inactives have no number; active = well fitted inhibition curve with a large enough effect; inconclusive = small, poorly fitted or top-dose-only effect; inactive = no such curve, though single readings can be large or run the other way; tested in A549 cells; also: nearly all actives have a fitted effect of over 35% in size; inactives centre near -10
# * = called active by the depositor; i = inactive; ? = inconclusive; · = not tested or not shown; & = joins results of further samples; [ ] = dose if it differs, or a comment. % is scaled to controls: 0 for no effect and ±100 for the full control effect; potency is read from the fitted curve at half-maximal effect.
SMILES,Vaccinia Venus,Vaccinia mCherry
CC(Oc1ccccc1C(N)=O)C(=O)Nc1ccc(S(=O)(=O)N2CCCC2)cc1 (stereo not drawn),-11%,-14%
COc1ccccc1OCC(=O)N/N=C/C=C/c1ccc([N+](=O)[O-])o1,?,?
COc1ccc(CCNc2ncnc3c2cnn3-c2ccc(C)c(Cl)c2)cc1,2%,-8%
CC(C)(C)c1ccc(C(=O)NCC(c2ccc(Cl)cc2)N2CCOCC2)cc1 (stereo not drawn),-15%,-11%
COc1ccc(N2CCN(C(=O)CSc3ccccc3N)CC2)cc1,-12%,i
CC1(Cc2ccc(F)cc2)C(=O)Nc2c(Cl)ccc(Cl)c21 (stereo not drawn),-18%,?
O=C(Nc1ccc(C(=O)O)cc1)/C(=C/c1cccc(Br)c1)NC(=O)c1ccco1,-9%,i
CC1=CC(C)(C)NC(=O)N1c1ccc(C)cc1,-19%,i
CCc1ccccc1OCC(=O)NCC1COc2ccccc2O1 (stereo not drawn),-2%,-6%
Cc1ccc(C(c2c(C)[nH][nH]c2=O)c2c(C)[nH][nH]c2=O)cc1,-6%,-10%
CCn1c2c(c(C)cc1=O)C(=O)CC(C)(C)C2,-3%,i
CCCN1Cc2cccc(C(=O)NCCCOC(C)C)c2C1=O,21%,3%
O=C(Cn1cccn1)N1CCOc2c(cc(-c3ncc(C(F)(F)F)cc3Cl)cc2OCC2CCCO2)C1 (stereo not drawn),-14%,i
COc1ccc(-c2cc(C(=O)Nc3ccc(O)cc3)c3ccccc3n2)cc1OC,-9%,?
Cc1ccc(N2C(=O)[C@@H]3C(c4ccc(F)cc4)=NO[C@@H]3C2=O)cc1,0%,·

# Three compounds already listed, sorted by heavy-atom count, ascending:
SMILES,Vaccinia Venus,Vaccinia mCherry
Cc1ccc(C(c2c(C)[nH][nH]c2=O)c2c(C)[nH][nH]c2=O)cc1,-6%,-10%
CC(C)(C)c1ccc(C(=O)NCC(c2ccc(Cl)cc2)N2CCOCC2)cc1 (stereo not drawn),-15%,-11%
COc1ccc(-c2cc(C(=O)Nc3ccc(O)cc3)c3ccccc3n2)cc1OC,-9%,?

# The main list resumes with the four entries that preceded the break.
SMILES,Vaccinia Venus,Vaccinia mCherry
CCCN1Cc2cccc(C(=O)NCCCOC(C)C)c2C1=O,21%,3%
O=C(Cn1cccn1)N1CCOc2c(cc(-c3ncc(C(F)(F)F)cc3Cl)cc2OCC2CCCO2)C1 (stereo not drawn),-14%,i
COc1ccc(-c2cc(C(=O)Nc3ccc(O)cc3)c3ccccc3n2)cc1OC,-9%,?
Cc1ccc(N2C(=O)[C@@H]3C(c4ccc(F)cc4)=NO[C@@H]3C2=O)cc1,0%,·
COC(=O)c1ccccc1NC(=O)CCS(=O)(=O)c1ccc(Br)s1,-29%,?
O=C(Nc1ccc(F)cc1)Nc1nnc([C@@H]2C[C@H](O)[C@@H](CO)O2)s1,0%,i
COc1ccc(C2CC(=O)c3cc(OC)ccc3O2)cc1 (stereo not drawn),-6%,?
C[C@@H](c1ccccc1)N1Cc2ccccc2Oc2cc(Br)ccc2S1(=O)=O,-10%,-1%
COc1ccc(C(=O)NCCC2=CCCCC2)cc1S(=O)(=O)N1CCOCC1,-11%,-3%
Cc1ccc(S(=O)(=O)NCCC(=O)N2CCN(S(=O)(=O)c3ccccc3)CC2)cc1C,-15%,-18%
Cc1ccc(Cn2c(C)c(C(=O)NCc3cccc(C(F)(F)F)c3)sc2=O)cc1,-16%,12%
CCN(CC)C(=O)C1=C(C)N(Cc2ccccc2)C(=O)C(CC(=O)NCCCN(C)C)C1 (stereo not drawn),-10%,i
CCCC1CCCCC12C(=O)NC(=O)NC2=O (stereo not drawn),-13%,-30%
CC(CC(=O)Nc1nc2ccccc2[nH]1)n1ccnc1 (stereo not drawn),-8%,i
O=C1NC2(CCCCC2)Cc2ccccc21,-13%,-7%
O=C(NCc1ccccc1)c1cc(C2CCCN(S(=O)(=O)c3cccc4cccnc34)C2)on1 (stereo not drawn),-11%,2%
O=C(COc1ccc(Br)cc1F)NC1CCN(Cc2ccccc2)CC1,-9%,·
Cc1ccc(C2C=C(c3ccc4c(c3)OCO4)Nc3ncnn32)cc1 (stereo not drawn),-7%,-10%
O=C(CCN1c2ccccc2Sc2ccccc21)OCC(=O)N1CCN(C(=O)c2ccco2)CC1,5%,-8%
C/C(CC(=O)NCc1ccc(Cl)cc1)=N\NC(=O)Cc1ccccc1,-15%,-13%
O=C(Nc1ccc2c(c1)OCO2)C(c1ccc(Cl)cc1)N1CCC2(CC1)OCCO2 (stereo not drawn),-4%,i
COc1cc(Cl)ccc1OCc1cc(C(=O)NC(C)Cc2cccnc2)no1 (stereo not drawn),-8%,-22%
COc1ccccc1C=NNC(=O)c1ccncc1,-9%,-17%
O=C(Cn1ncc2c(=O)oc3ccccc3c21)NCc1ccc(Cl)cc1,17%,7%
COC(=O)CNC(=O)c1ccccc1C,-2%,-11%
CNC(=O)Nc1ccc(C(=O)N/N=C\C23CC[C@@H](O)CC2(O)CC[C@@H]2[C@@H]3CCC3(C)C(C4=CC(=O)OC4)CCC23O)cc1 (stereo partly drawn),?,13µM*
O=C(CN1C(=O)C2CCCCC2C1=O)Nc1ccccc1C(=O)O (stereo not drawn),-17%,-16%
CN(C(=O)CSc1cn(CC(=O)N2CCCC2)c2ccccc12)c1ccccc1,-3%,-10%
CCCCN(CCCC)C(=O)c1cc2ccccc2c(=O)o1,-4%,-2%
CCNC(=S)Nc1ccc(Cl)c(C(F)(F)F)c1,?,?
CC(C)OC(=O)c1c(NC(=O)C2c3ccccc3Oc3ccccc32)sc2c1CCCC2,-8%,-15%
CN(C(=O)COC(=O)c1cc([N+](=O)[O-])ccc1N1CCCC1)C1CCS(=O)(=O)C1 (stereo not drawn),-8%,-14%
O=C(/C=C/c1ccc(O)c(O)c1)OC(Cc1ccc(O)c(O)c1)C(=O)O (stereo not drawn),-5%&-14%,1%&-9%
CC(C)CNC(=S)Nc1ccc(Oc2ccccc2)cc1,-21%,-3%
Cc1ccc(NC(=O)CSc2nc3ccc(NC(=O)c4cccs4)cc3s2)c(C)c1,-18%,-6%
CNc1cncc(-c2ccc(C)cc2)n1,-1%,i
COc1ccccc1CN(Cc1ccco1)c1cnc(S(C)(=O)=O)nc1C(=O)Nc1ccccc1Cl,-11%,-16%
COCc1c(N)c(C)nc(Cl)c1C#N,-2%,i
CCOc1ccccc1NC(=O)/C=C/c1ccccc1[N+](=O)[O-],-13%,i
Brc1ccccc1OCCN1CCOCC1,0%,-12%
C[C@H](NC(=O)[C@@H](N)Cc1ccc(O)cc1)C(=O)NCC(=O)N(C)[C@@H](Cc1ccccc1)C(=O)N[C@H](CO)CCS(C)=O (stereo partly drawn),0%[3.33 µM],-10%[3.33 µM]
CCn1c2ccccc2c2cc(CN3CCN(S(C)(=O)=O)CC3)ccc21,?,-28%
Cc1ccc(Cl)cc1NS(=O)(=O)c1ccc2c(c1)NC(=O)C(C)C(=O)N2 (stereo not drawn),-8%,-7%
COc1cc(C(=O)OCCc2cc3ccccc3c(=O)o2)cc(OC)c1OC,-16%,-12%
Cc1nc(N2CCCCC2C)c2c(C)c(C(=O)Nc3cccc(C(F)(F)F)c3)sc2n1 (stereo not drawn),2%,i
NC1=Nc2ccccc2Oc2ccccc21,-20%,-7%
CCN(CC)S(=O)(=O)c1ccc(C)c(NC(=O)CSc2ncc(C(F)(F)F)cc2Cl)c1,?,-18%
Cn1c(SCC(=O)N2CCCC2)nc2c(c1=O)SCC2,-9%,-13%
CN(C)c1cccc(C(=O)OCCCC(=O)c2ccc(F)cc2)c1,-8%,i
CN1CCN(C2CN(CCc3ccccc3)S(=O)(=O)C2)CC1 (stereo not drawn),8%,11%
CCc1cccc(N2C(=O)CS(=O)(=O)C23C(=O)N(Cc2ccc(F)cc2)c2ccc(C)cc23)c1 (stereo not drawn),-17%,-20%
CCOC(=O)N1CCN(C(=S)NC(=O)c2ccc(F)c(F)c2)CC1,-11%,-9%
Cc1c(C)n(C)c2ccc(C(=O)NCCCN3CCOCC3)cc12,-8%,-15%
O=C(Nc1ccc(S(=O)(=O)Nc2ncccn2)cc1)c1cccc(Cl)c1,13%,9%
Cc1ccc(S(=O)(=O)N2CCCCC2)cc1NC(=O)CSc1ccc2c(c1)OCCO2,-11%,-23%
CS(=O)(=O)N(Cc1ccccc1)c1ccc(C(=O)Nc2cccc(Cl)c2)cc1,-24%,-8%
Cc1cccn2c(=O)c(/C=C(\C#N)c3nc4ccccc4s3)c(Oc3ccc(F)cc3)nc12,-3%,-7%
CCOC(=O)Cc1[nH]nc2c1C(c1ccsc1)C(C#N)=C(N)O2 (stereo not drawn),-10%,i
COc1ccc(CCNc2nc(-c3ccc(NC(C)=O)cc3)cs2)cc1OC,-18%,-6%
COc1ccc(C(=O)N/C(=C/c2ccco2)C(=O)N2CCCCCC2)cc1,2%,-1%
CCCCn1c(-c2ccco2)nc2oc3ccccc3c(=O)c2c1=O,-16%,-1%
COc1ccc(CC(=O)NCc2nc3cccnc3n2Cc2ccccc2)cc1,-12%,-10%
CC(C)C(NC(=O)Cc1ccccc1[N+](=O)[O-])C(C)C,4%,-13%
Cc1ccc(SCc2cc(=O)[nH]c(Nc3nc(C)c4ccc(C)cc4n3)n2)cc1,-9%,-13%

# An excerpt of these results, with each value named.
> COc1ccc(C(=O)N/C(=C/c2ccco2)C(=O)N2CCCCCC2)cc1
  Vaccinia Venus: 2%
  Vaccinia mCherry: -1%

> Cc1ccc(NC(=O)CSc2nc3ccc(NC(=O)c4cccs4)cc3s2)c(C)c1
  Vaccinia Venus: -18%
  Vaccinia mCherry: -6%

> CCN(CC)S(=O)(=O)c1ccc(C)c(NC(=O)CSc2ncc(C(F)(F)F)cc2Cl)c1
  Vaccinia Venus: ?
  Vaccinia mCherry: -18%

# Remaining list, next part
SMILES,Vaccinia Venus,Vaccinia mCherry
Cc1ccn2c(=O)c(NC(=O)c3ccc(Br)o3)c(C)nc2c1,-5%,-11%
COc1ccc(C(C)=O)cc1Cn1c(C)c(C(=O)NCc2ccc(C(F)(F)F)cc2)sc1=O,-13%,15%
CCOc1ccc(S(=O)(=O)N2CCCCC2)cc1NC(=O)CN1C(=O)NC(C)(C2CC2)C1=O (stereo not drawn),-7%,-14%
CCOc1cc(C(=O)Nc2ccc(-c3nc4cc(C)ccc4o3)cc2)cc(OCC)c1OCC,-5%,0%
CCCCNC(=S)Nc1ccc(SC(F)F)cc1,-26%,-23%
O=C(N/N=C/c1cc2c(cc1[N+](=O)[O-])OCO2)c1ccc2c(c1)OCO2,0%,8%
COc1ccccc1-c1sc2ccccc2c1-c1ccc(OCCN2CCOCC2)cc1,-19%,-11%
CCOC(=O)C1(COCc2ccccc2)CCCCC1=O (stereo not drawn),-15%,i
COc1ccc(N(C(C)C(=O)Nc2cccnc2)S(C)(=O)=O)cc1 (stereo not drawn),8%,12%
COc1ccc(S(=O)(=O)N2CCOCC2)cc1NC(=O)C1CCN(S(=O)(=O)c2ccc(Cl)cc2)CC1,-18%,-10%
CCOc1ccccc1N1CC(C(=O)NCCOc2ccccc2OC)CC1=O (stereo not drawn),-16%,i
CCOc1ccc(NC(=O)NCC2CCN(c3ccc(OC)cc3)C2)cc1 (stereo not drawn),-13%,-13%
O=C1C(Nc2ccccc2)=C(NS(=O)(=O)c2ccccc2)C(=O)c2ccccc21,-3%,i
CCOc1ccccc1NC(=O)C(C)Sc1cc(-c2ccccc2)nc(C)n1 (stereo not drawn),-12%,-16%
Cc1cc(C)cc(N2C(=O)CC(Sc3ncn[nH]3)C2=O)c1 (stereo not drawn),-6%,-18%
O=C1CC(=O)Nc2cc(S(=O)(=O)Nc3ccc(F)cc3Cl)ccc2N1,-2%&-6%,-9%&-12%
COc1ccc(-n2nc3ccc(N)cc3n2)cc1,-16%,-6%
Nc1cc(-c2cccc(Br)c2)nn1Cc1ccccc1,?,-9%
CC1CC1C(=O)OCC(=O)NC(=O)c1ccc(C(C)(C)C)cc1 (stereo not drawn),0%,i
O=C(Nc1ccc(N2CCN(C(=O)c3ccco3)CC2)cc1)c1ccco1,2%,-7%
COc1cc(NC(=O)Cn2c(=O)n(Cc3ccccc3OC)c(=O)c3cccnc32)cc(OC)c1,-16%,-6%
CC(=O)COC(=O)C1CCN(S(=O)(=O)c2cc([N+](=O)[O-])ccc2Cl)CC1,-9%[7.34 µM],-13%[7.34 µM]
CCc1nc2c(OCCC3CCCCC3)cccn2c1N(C)C(=O)C1CC1,-16%,-2%
CCCC(=O)c1cn(CC(=O)OC)c2ccccc12,-20%,·
CC1CCCCN1S(=O)(=O)c1ccc(N(C(=O)c2cnccn2)C(C(=O)NC2CCCCC2)c2cccs2)cc1 (stereo not drawn),-26%,-10%
O=S(=O)(F)c1ccc2nc(-c3cccc(Sc4ccccc4)c3)cc(Cl)c2c1,4%,i
O=C(Nc1nc(-c2cc(F)ccc2F)cs1)C1=COCCO1,-21%,i
COc1ccc(/C=N/NC(=O)c2nn(-c3ccc(C)c(C)c3)c(=O)c3ccccc23)cc1,-8%,·
CCCNC(=O)C1(C)CCCN(C(=O)Cc2ccc3ccccc3c2)C1 (stereo not drawn),-2%,-3%
Cc1cc(C)c(NC(=O)/C=C\C(=O)O)c([N+](=O)[O-])c1,-13%,-15%
C/C(=N\NC(=O)c1ccccc1Cl)c1ccccn1,?,?
CCOC(=O)c1cc(CC)sc1NC(=O)c1ccc([N+](=O)[O-])c(N2CCOCC2)c1,-2%,-9%
O=C(Cc1ccc(F)cc1)Nc1c(C(=O)N2CCN(c3ncccn3)CC2)oc2ccccc12,-8%,-14%
